# High-throughput results from PubChem BioAssay.
# NPYLR7 ag – activates Aedes aegypti NPYLR7 receptor; HEK293T NPYLR7/Galpha15, GCaMP6s calcium fluorescence; activation, % at 10 µM; AID 1259423; 270,000 compounds, 0.15% hits; in the data active = activation above about 40%;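 note: 0% = vehicle and 100% = reference agonist at the receptor; some compounds past the cut are filed as inactive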
# NPYLR7 ag max-min – second read-out of NPYLR7 ag, no call of its own (marks repeat the call); activation, %; measured here: Max-Min RFU normalised activation; some inactives read as strong as hits;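 span of the calcium signal over five minutes; 0% = vehicle and 100% = native peptide agonist; compound fluorescence can raise it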
# * marks the source's active call; other numbers are inactive results; & = joins results of further samples. An excerpt. The share of hits here may be higher or lower than overall.
SMILES,NPYLR7 ag,NPYLR7 ag max-min
COc1ccc(S(=O)(=O)N(C)CCO)cc1N(C)S(=O)(=O)c1ccc(C)cc1,-3,-3
CCOC(=O)N1CCC(n2ccnc2-c2c(C)ccc3ncccc23)CC1,3,-6
CC(C)CN(CC(=O)Nc1nc(CC(=O)NCCCN2CCOCC2)cs1)C(=O)C1CCCCC1,-6,1
Cc1cc(C)cc(N(C)S(=O)(=O)c2ccc3c(c2)NC(=O)CO3)c1,4,0
Cc1oc(-c2cccc(Cl)c2)nc1CSc1nc(-c2cccnc2)cc(=O)[nH]1,1,-3
CC1=C(C(=O)N2CCC(CCN3CCCC3=O)CC2)C(C)NC(=O)N1 (configuration not stated),1,-6
CC(C)(C)c1csc(NC(=O)c2cc(=O)c3ccccc3o2)n1,-1,1
CCOc1cccc2c1CCC2NC(=O)c1nn(-c2ccc(F)cc2)ccc1=O (configuration not stated),1,27
COc1ccc(CCN(Cc2ccc(C)s2)C(=O)CN(CC(C)C)C(=O)Cc2cccs2)cc1OC,13,18
COc1ccc(-c2nn3c(NC(C)C)cc(C)nc3c2C)cc1OC,0,-5
Cn1nc(NC(=O)C2CCN(S(C)(=O)=O)CC2)c2c1NC(=O)CC2c1ccco1 (configuration not stated),-14,-21
Cc1nc2scc(C)n2c(=O)c1NC(=O)c1ccc(Cl)nc1,5,0
COc1cc(OC)cc(-c2nn(-c3ccc(C)cc3)c(OC(C)=O)c2-c2ccc(NC(=O)c3ccccc3F)cc2)c1,4,9
COC1(C)CC(N(C)C(=O)c2cccnc2C)C1(C)C (configuration not stated),4,4
CCCCN(CC(=O)N1CCc2sccc2C1c1ccc(Cl)cc1Cl)C(=O)c1cccc(Br)c1 (configuration not stated),15,10
CCCCC1C=CCN1C(=O)Cc1ccccn1 (configuration not stated),12,7
CCc1nc2ccc(C(=O)NCC3CCCCC3)cn2c1N(CC)CC(=O)N(C)C,8,21
Cc1cnc(=O)[nH]c1SCc1ccc(Cl)cc1,12,10
c1ccc2c(c1)CCC2=NNc1nncc2ccccc12,1,-3
Cn1ncc2c(NCCCc3csc(N)n3)nc(C(C)(C)C)nc21,-2,10
Cc1nnc(-c2ccccc2-c2cc(N)nc3[nH]ccc23)o1,1,-2
CCn1c(-c2ccco2)nn(CN2CCN(c3ccc(O)cc3)CC2)c1=S,0,-1
Cc1ccc2nc(NC(=O)CSc3nc(=O)n(Cc4ccco4)c4c3CCC4)sc2c1,-7,-6
CNc1ccccc1C(=O)N1CCCN(C(=O)COC)CC1,4,3
NC(=O)Nc1ccc(I)cc1,-2,-6
CCC(CNC(=O)c1cnc(C)cn1)N1CCCC1 (configuration not stated),-1,-1
O=S(=O)(CCCOc1ccc2c(c1)OCO2)N1CCCCCC1,5,8
CN(CC1CCCC1)C(=O)C(=O)Nc1cc(C(F)(F)F)c[nH]c1=O,4,2
COc1ccc(-c2cc(C(=O)NCCN3CCCC3)c(C)n2-c2ccccc2)cc1,12,15
Cc1ccc(SCc2csc(Cc3ccc(Cl)c(Cl)c3)n2)c(C)c1,-5,-16
CN(C(=O)CSc1ncn[nH]1)C1(C#N)CCCCC1,7,15
CC(=O)N1CCC(NC(=O)COc2c(C)cccc2Cl)CC1,4,3
O=C(NC1CCCCCC1)C1CC2CCCC(C1)C21SCCS1 (configuration not stated),-3,-8
CCCCCc1ccc(C(=O)N(CC(=O)N2CCc3sccc3C2c2ccc(Cl)cc2Cl)Cc2ccco2)cc1 (configuration not stated),33,30
Cc1cc(C(=O)Nc2cc(-c3ccccc3)nn2-c2ccccc2)cc(Cl)n1,-7,-7
CCCS(=O)(=O)NCCc1csc2nc(-c3cccs3)nn12,5,1
Cc1cc(C)n(CC(C)NC(=O)CCc2nnc(CCc3ccccc3)o2)n1 (configuration not stated),7,6
O=C(O)CCCCc1cc2c(s1)CCCC(=O)N2,-3,-4
COC(=O)c1ccc(F)cc1NCC(=O)Nc1cccc(C(=O)N(C)C)c1,7,5
CCOC(=O)c1cc(C(C)(C)C)n(C2CCN(C(=O)c3cnc4ccccc4c3)CC2)n1,23,17
CN(C)S(=O)(=O)c1ccc(C(=O)NCC2CSCCS2)cc1 (configuration not stated),0,3
O=C(NCCNC(=O)C1CCN(C(=O)c2cc(Cl)cc(Cl)c2)CC1)c1ccccc1,-10,-8
CC(=O)Nc1ccc(CN2C(=O)CON=C2c2cccc(C)c2)cc1,2,0
Cc1cc(-n2c(C)cc(C(=O)CSc3nncs3)c2C)no1,0,5
Fc1ccc(/C=N\Nc2ncnc3nc[nH]c23)cc1F,0,-3
COc1ccc(S(=O)(=O)NCC2CCCN(C(=O)C3=CCCC3)C2)cc1 (configuration not stated),-2,-4
O=C(NCCN1CCOCC1)c1ccc(SC(F)(F)F)cc1,-3,-8
CC(C)Cn1c(-c2ccc3c(c2)OCCO3)nc2c1c(=O)[nH]c(=O)n2CC(C)C,-1,0
CCc1[nH]n(C)c(=O)c1C1=C(N(C)C2CCCCC2)C(=O)N(c2ccc(C)cc2)C1=O,-3&11,-1&36
O=C1CCC(C(=O)N2CCC(c3ccncc3)CC2)CN1Cc1ccccn1 (configuration not stated),0,0
CC(Oc1cccc(Cl)c1)C(=O)N1CCOC(COCc2ccccc2F)C1 (configuration not stated),18,11
O=C(NCCn1nc(-c2ccccc2)ccc1=O)C1c2ccccc2Oc2ccccc21,3,4
COc1ccc(CCNC(=O)c2cc(Br)ccc2NS(=O)(=O)c2ccc(OC(F)(F)F)cc2)cc1,-3,4
COCCn1c(SCC(=O)N2CCCCCC2)nc2c([nH]c3ccccc32)c1=O,-4,-4
COc1cc(OC)c(OC)cc1CN1CCCn2cccc2C1c1cccc(C(F)(F)F)c1 (configuration not stated),2,5
Cc1nc2c(=O)n(CC(=O)NC(C)C)nc(-c3cccs3)c2s1,3,-1
Cc1ccc(S(=O)(=O)N2CCN(C)CC2CNC(=O)OC(C)(C)C)c(C)c1 (configuration not stated),-3,-4
CN(Cc1ccccn1)S(=O)(=O)c1sc2c(c1C(=O)O)CCNC2,1,0
CC(=O)c1cccc(NC(=O)CCc2csc(NC(=O)c3ccc[nH]c3=O)n2)c1,-1,-8
COCCOC(=O)C1=C(C)NC2=C(C(=O)CCC2)C1c1ccc2c(c1)OCO2 (configuration not stated),4,4

# An excerpt from above in order of number of heavy atoms, lowest first:
SMILES,NPYLR7 ag,NPYLR7 ag max-min
Fc1ccc(/C=N\Nc2ncnc3nc[nH]c23)cc1F,0,-3
Cc1cc(-n2c(C)cc(C(=O)CSc3nncs3)c2C)no1,0,5
Cc1nc2c(=O)n(CC(=O)NC(C)C)nc(-c3cccs3)c2s1,3,-1
CN(Cc1ccccn1)S(=O)(=O)c1sc2c(c1C(=O)O)CCNC2,1,0
CC(=O)Nc1ccc(CN2C(=O)CON=C2c2cccc(C)c2)cc1,2,0
COc1ccc(S(=O)(=O)NCC2CCCN(C(=O)C3=CCCC3)C2)cc1 (configuration not stated),-2,-4
Cc1ccc(S(=O)(=O)N2CCN(C)CC2CNC(=O)OC(C)(C)C)c(C)c1 (configuration not stated),-3,-4
O=C1CCC(C(=O)N2CCC(c3ccncc3)CC2)CN1Cc1ccccn1 (configuration not stated),0,0
CC(C)Cn1c(-c2ccc3c(c2)OCCO3)nc2c1c(=O)[nH]c(=O)n2CC(C)C,-1,0
O=C(NCCNC(=O)C1CCN(C(=O)c2cc(Cl)cc(Cl)c2)CC1)c1ccccc1,-10,-8
CCc1[nH]n(C)c(=O)c1C1=C(N(C)C2CCCCC2)C(=O)N(c2ccc(C)cc2)C1=O,-3&11,-1&36
CCOC(=O)c1cc(C(C)(C)C)n(C2CCN(C(=O)c3cnc4ccccc4c3)CC2)n1,23,17
COc1cc(OC)c(OC)cc1CN1CCCn2cccc2C1c1cccc(C(F)(F)F)c1 (configuration not stated),2,5
COc1ccc(CCNC(=O)c2cc(Br)ccc2NS(=O)(=O)c2ccc(OC(F)(F)F)cc2)cc1,-3,4

# The results go on.
SMILES,NPYLR7 ag,NPYLR7 ag max-min
CCN1CCN(C(c2cccs2)C(C)NS(=O)(=O)c2ccc(Br)cc2)CC1 (configuration not stated),-5,-5
CN1CCc2c(sc(NC(=O)c3ccccc3)c2-c2nc3ccccc3s2)C1,17,16
O=C(NCCN1CCCCC1)c1cc(-c2ccccc2)nn1-c1ccccc1,-4,2
O=C(O)c1ccccc1NC1=C(n2nnc3ccccc32)C(=O)c2ccccc2C1=O,12,9
COCc1nc(-c2ccc(CN3CCN(C(=O)C4CC=CCC4)CC3)cc2)no1 (configuration not stated),-4,3
Cc1cccc(COCC2CN(C(=O)c3cccc(C(C)C#N)c3)CCO2)c1 (configuration not stated),-17,-17
N#CCCN1CCN(C(=S)c2ccc(-c3ccc([N+](=O)[O-])cc3)o2)CC1,6,3
CCOC(=O)c1c(N=CN(C)C)sc2c1CCC2,4,2
C=CCn1c(SCC(=O)N2CCC(C)CC2)nnc1-c1cccc(C)c1,-3,10
CNc1nc2cnc(Nc3ccc(C(=O)OC)cc3)cc2n1-c1ccccc1,5,-3
CN(Cc1ccsc1)S(=O)(=O)Cc1ccc(C#N)cc1,4,0
CC(C)CN1CCC1(C)C(=O)NCc1ccc(C(F)(F)F)cc1 (configuration not stated),9,0
CC(=O)Nc1ccc(CNc2nc3cc(-c4ccc(F)cc4)sc3c(=O)n2C)cc1,3,2
CC1(C(=O)NS(=O)(=O)c2ccc3c(c2)CCO3)CCN1C(=O)C1(c2ccccc2)CCCC1 (configuration not stated),2,2
Cc1ccc(NC(=O)CSc2nccn3nc(-c4ccc(F)cc4)cc23)cc1F,0,-3
CCC(=O)Nc1ccc(SCc2ccc(F)cc2)nn1,1,-5
Cc1ccc(CN(Cc2nc(C(=O)O)co2)CC2CC2)cc1,7,5
Cc1ccc(F)cc1NC(=O)c1cc(Br)cn1C,-1,1
CCOC(=O)c1cn[nH]c1S(=O)(=O)Nc1ccccn1,3,5
NC(c1ccccc1)c1ccc2nc(C(F)(F)F)[nH]c2c1 (configuration not stated),1,-4
O=C(O)c1cccnc1CN1CCCC1c1nccs1 (configuration not stated),-7,-7
O=C1CN(S(=O)(=O)c2ccc(F)cc2)CC(O)CN1C1CCCCC1 (configuration not stated),2,12
O=C(c1cccc(F)c1)N1CCN(C(=O)C2CC2)CC1,6,7
CCN1C(=O)N(Cc2cccc(OC)c2)C(=O)C12CCN(Cc1ccc3c(c1)CCCN3C)CC2,8,-5
COC(=O)c1sccc1NC(=O)COc1cccc(C(C)=O)c1,0,-3
COc1ccc(Cl)cc1-c1nc(-c2ccc(Br)o2)no1,2,-1
CCCCn1c(CN2CCN(C(=O)OCC)CC2)nc2c1c(=O)n(C)c(=O)n2C,1,25
CC(C)OCCCNC(CC(=O)Nc1ccccc1O)C(=O)O (configuration not stated),2,0
C=CCSc1nnc(NC(=O)CCc2ccc(OC)cc2)s1,17,11
CCOC(=O)c1c(NC(=O)CCCl)sc2c1CCC(C)C2 (configuration not stated),8,5
CC(C)(C)NC(=O)CC1(C(=O)NC2CCN(C(=O)c3ccccc3)CC2)CCCC1,-1,-2
CC1(C)[C@]2(C(=O)NCCCc3nc4ccccc4o3)CC[C@@]1(C)OC2=O,-5,-8
CC(O)(C(=O)NCc1cccnc1N1CCOCC1)c1ccccc1 (configuration not stated),0,2
CCOc1ccccc1-c1nc(Sc2oc(C=O)cc2Br)n[nH]1,-8,-18
COc1cccc(OC)c1OCc1nc(C(=O)Nc2ccc(F)cc2)cs1,-4,-2
Cc1oc(-c2cccc(F)c2F)nc1CN(CCO)CC12CC3CC(CC(C3)C1)C2,15,2
Cc1cccc(C(=O)N(Cc2ccco2)Cc2cc(N)ccc2N(C)C)c1,-2,5
O=C(O)c1cccc(N2C(=O)C3C4C=CC(CO)(O4)C3C2=O)c1 (configuration not stated),-3,-8
Cc1cccc(-c2cc(N)n(-c3ccc(C(=O)Nc4ccc(C(C)C)cc4)cc3)n2)c1,-7,-11
COc1ccc(N2CCN(C(=O)C3CCCCC3C(=O)N3CCC(O)(c4ccccc4)CC3)CC2)cc1 (configuration not stated),-6,-14
COc1ccc(CN2CCCn3cccc3C2c2ccc(C)c(C)c2)cc1O (configuration not stated),3,10
CCc1cccc2c(C(CC(=O)N3CCN(c4cccc(C(F)(F)F)c4)CC3)c3ccc4c(c3)OCO4)c[nH]c12 (configuration not stated),-4,3
CC(=O)Nc1ccc(-c2cn(C(C)Cn3nc(C)cc3C)nn2)cc1 (configuration not stated),1,-2
COc1cc(CN(CCC(C)C)CC(O)COCc2ccco2)cc(OC)c1 (configuration not stated),25,31
CC1(C)S[C@@H]2[C@H](NC(=O)[C@H](N)c3ccccc3)C(=O)N2[C@H]1C(=O)OC1OC(=O)c2ccccc21 (some centres not stated),13,1
COc1ccccc1C(=O)N1CCN(c2nccc(-c3ccc4c(c3)OCO4)n2)CC1,0,9
CN(C)S(=O)(=O)c1ccc(CS(=O)(=O)c2ccccc2F)o1,-5,11
COc1ccc(C)cc1CN(C)C(=O)Nc1cc(C)on1,-4,-1
COC(=O)c1ccccc1S(=O)(=O)NC(C)c1ccc(C)o1 (configuration not stated),2,-1
CCCc1oncc1C(=O)N1C[C@H]2CC=CC[C@H]2C1,1,-1
